Source: PubChem BioAssay
D2 potentiator – Beta-Arrestin HTS for Positive Allosteric Modulators of the Human D2 Dopamine Receptor: Potentiators. D(2) dopamine receptor (Homo sapiens), P14416. DiscoveRx D2 beta-arrestin cells, luminescence, 90 min; 100% = 57 uM dopamine signal. potentiation, % (no concentration beside the values). 0.23% of 360,000 active; active = potentiation of 50% or more; inconclusive = 30% to 50%; inactive = 30% or less;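 note: compound concentration not given in the record; tested on top of an EC20 dose of dopamine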
Target sequence (P14416 whole entry, looked up): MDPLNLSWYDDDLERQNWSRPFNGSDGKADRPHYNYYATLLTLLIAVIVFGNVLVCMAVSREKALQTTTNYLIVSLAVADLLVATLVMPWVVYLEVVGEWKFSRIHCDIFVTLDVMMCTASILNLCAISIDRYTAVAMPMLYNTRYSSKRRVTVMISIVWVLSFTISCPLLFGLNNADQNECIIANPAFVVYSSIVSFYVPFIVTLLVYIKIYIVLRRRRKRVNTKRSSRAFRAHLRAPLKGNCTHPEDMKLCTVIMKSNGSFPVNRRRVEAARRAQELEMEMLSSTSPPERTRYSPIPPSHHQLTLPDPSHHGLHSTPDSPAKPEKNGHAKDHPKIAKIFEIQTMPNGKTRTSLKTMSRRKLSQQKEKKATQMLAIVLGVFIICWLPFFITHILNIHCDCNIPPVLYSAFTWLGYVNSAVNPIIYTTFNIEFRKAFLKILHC
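D2 cells co-treated with compound plus 50 nM dopamine (EC20) for 90 min at 37 deg C to detect potentiation. Beta-arrestin recruitment was read as enzyme-fragment luminescence after 1 h at ambient temperature. Full response was set by 57 uM dopamine.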
D2 agonist – Beta-Arrestin HTS for Positive Allosteric Modulators of the Human D2 Dopamine Receptor: Agonists | D(2) dopamine receptor (Homo sapiens), P14416 | DiscoveRx PathHunter D2 beta-arrestin, luminescence, 90 min; 100% = 57 uM dopamine signal | activation, % (concentration not given with the values) | 0.084% of 360,000 active; in the data active = activation above about 40%; inconclusive = about 15% to 40%; inactive = below about 15%; note: compound concentration not given in the record; the text of the record calls up to 30% inactive
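Agonist mode: compounds alone added to overnight-plated D2 PathHunter cells for 90 min at 37 C, with 57 uM final dopamine (EC100) defining full response. Beta-arrestin recruitment detected by chemiluminescent reagent, read after 1 h at ambient temperature.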
gsp agonist – qHTS for Agonist of gsp, the Etiologic Mutation Responsible for Fibrous Dysplasia/McCune-Albright Syndrome: qHTS; gsp mutant cells, cAMP HTRF, 30 min; control for the full effect not named in the record; Potency, µM (series often up to 76.9 µM), for inactives: at the top dose activation (cAMP increase), actives largely listed as activators; 0.13% of 340,000 active; active = well fitted activation curve with a large enough effect; inconclusive = small, poorly fitted or top-dose-only effect, or another doubt; inactive = no such curve, though single readings can be large or run the other way; cell line not stated here;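 note: phosphodiesterase inhibitor Ro 20-1724 added with compounds to block cAMP breakdown; potency is the fitted concentration of half-maximal effect; nearly all actives have a fitted effect of over 60% in size; about a fifth of the inactives were tested at one dose only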
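Cells in DMEM/10% FBS with G418 were pretreated with compounds in DMSO plus […] (300 uM stock) for 30 min at 37C. cAMP was measured by HTRF (cAMP-d2 plus anti-cAMP antibody-K) after 30 min at room temperature.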
Six1-Eya2 inh – qHTS Assay for Inhibitors of the Six1/Eya2 Interaction; Homeobox protein SIX1 (Homo sapiens) + Protein phosphatase EYA2 (Homo sapiens), …; AlphaScreen GST-Six1/His-Eya2 binding, biochemical; stronger effect = lower value; control for the full effect not named in the record; 0.56% of 360,000 active; activity change, % (concentration not given with the values); in the data active = activity change below about -65%; inconclusive = about -30% to -65%; inactive = above about -30%; note: % is set by controls: 0 for no effect and ±100 for the full control effect
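Six1/Eya2 binding was read as AlphaScreen signal after compounds were pinned into GST-Six1 plus His-tagged Eya2 (5X stock 250/500 nM) in pH 8.0 Tris/NaCl/TCEP buffer, beads added, then incubated 1 h, 37 C, dark.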
gsp antag – qHTS for Antagonists of gsp, the Etiologic Mutation Responsible for Fibrous Dysplasia/McCune-Albright Syndrome: qHTS | gsp-mutant cells, cAMP HTRF, 30 min; control for the full effect not named in the record | Potency, µM (top dose mostly 76.9 µM), inactives show at the highest dose activity change, negative = inhibition, most hits filed as inhibitors | 0.4% of 340,000 active; active = falling curve of any shape with a large fitted effect; inconclusive = falling curve, mostly with a smaller effect; inactive = flat or rising curve; cell line not stated here;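 note: intracellular cAMP measured with PDE inhibitor Ro 20-1724 present during compound exposure; potency is the fitted concentration of half-maximal effect; % is set by controls: 0 for no effect and ±100 for the full control effect; nearly all actives have a fitted effect of over 65% in size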
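HTRF cAMP read-out (cAMP-d2 plus anti-cAMP antibody-K in lysis buffer, 30 min RT). Before lysis, cells are exposed to compounds with […] for 30 min at 37C in DPBS containing Ca/Mg, BSA and Tween 20.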
CtBP-E1A inh – qHTS Assay for Inhibitors of the CtBP/E1A Interaction; CtBP / adenovirus E1A interaction (AlphaScreen); AlphaScreen GST-E1A/His-CtBP binding, 1536-well; stronger effect = lower value; control for the full effect not named in the record; activity change, % (test concentration not listed); 0.49% of 340,000 active; in the data active means activity change below about -65%; inconclusive means about -30% to -65%; inactive means above about -30%; note: % is set by controls: 0 for no effect and ±100 for the full control effect; compound concentration not given in the record
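Protein mix (5X: 125 nM each GST-E1A, His-CtBP) was incubated with pinned compound 2 h at 37 deg C in dark, in 50 mM Tris pH 8.0 buffer with 300 mM NaCl. Glutathione donor and nickel acceptor beads followed; AlphaScreen signal read after 1 h.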
An asterisk follows results filed as active; ? = inconclusive; nt = not tested or not shown; & = joins results of further samples; ! = a repeat was not active; [ ] = remark or other dose. The list is partial; rates above refer to the full screens.

SMILES	D2 potentiator	D2 agonist	gsp agonist	Six1-Eya2 inh	gsp antag	CtBP-E1A inh
C[C@@H]1CN([C@@H](C)CO)C(=O)CCCn2nncc2CO[C@H]1CN(C)C(=O)Nc1ccc(N2CCCCC2)cc1	0	-4.3	35%	8	nt	-13
O=C(N/N=C/c1c(O)n(Cc2ccc(F)cc2)c(=O)[nH]c1=O)c1ccccc1O	-15	-3.8	-6%[15.4 µM]	-88*	2%	?
O=C1NC(=O)N(c2ccc(Br)cc2)C(=O)/C1=C/c1ccsc1	-6	-2.0	-75%[inhibitor]	-3	-11%	nt
CCc1nc2ccccc2c(=O)n1-c1ccccc1OC	-1	6.9	-3%	-1	5%	-3
CCCCn1c(O)c(C(C)=NC(Cc2c[nH]c3ccccc23)C(=O)OC)c(=O)[nH]c1=O (centres undefined)	2	0.9	-52%[inhibitor]	-7	-9%	-7
Cc1ccc(C2CC3CCC(C2)N3Cc2ccccc2F)cc1 (centres undefined)	-14	0.9	0%[15.4 µM]	-2	-1%	14
O=[N+]([O-])c1ccc(NC2CCCC2)c2ccncc12	-1	3.5	26%	-4	-3%	8
CN(C(=O)c1cccc(N2C(=O)C3C4C=CC(C4)C3C2=O)c1)C1CCCCC1 (centres undefined)	-7	1.5	0%	2	3%	6
O=C1CN=C(c2ccc(F)cc2)c2oc3ccccc3c2N1	0	1.8	-1%	18	-2%	0
CCCCn1c(O)c(/C=N/NC(=O)c2ccncc2)c(=O)[nH]c1=S	5	2.5	8%[15.4 µM]	-85*	-21%	-29
COc1ccccc1-n1c(-c2ccc(C)cc2)nc2ccccc2c1=O	1	-0.7	-2%	1	-8%	-4
COC(=O)C1=C(c2cc3ccccc3o2)C[C@@H]2CC[C@H]1N2C(=O)NCc1ccc(F)cc1	-17	-3.0	-2%	1	-21%	0
COC(=O)CSC1=NP(=S)(SCC(=O)OC)N2CCCC2=C1C#N (centres undefined)	-4	-2.8	15%	9	0%	10
O=C1NC(=O)C(=Cc2cccs2)C(=O)N1	-10	-6.8	?	2	-9%	11
Oc1ccc2c3c1O[C@H]1c4[nH]c5ccccc5c4C[C@@]4(O)[C@@H](C2)N(CC2CC2)CC[C@]314	-51	-3.4	nt	3	-4%	7
CCN1CCN(c2nc3c(c(=O)[nH]2)CCC3)CC1	-10	-2.3	-24%	-3	11%	nt
Cc1cccc(-n2c(O)c(/C=N/N3CCOCC3)c(=O)[nH]c2=S)c1	15	2.3	1%	-2	11%	9
CCOc1ccc(N2C(=O)NC(=O)/C(=C\c3ccccc3[N+](=O)[O-])C2=O)cc1	0	7.7	19%	-2	-5%	nt
CNC1(c2ccc(F)cc2)CCCCC1	-7	-4.1	30%	14	6%	-6
CCOCCCn1c(N)c(C(=O)Nc2sc3c(c2C(=O)OC)CCCC3)c2nc3ccccc3nc21	-17	-2.7	-14%	-24	3%	7
NC1(C(=O)O)CCCc2ccc(N(CCCl)CCCl)cc21 (centres undefined)	-6	-1.4	-68%[inhibitor]	0	-10%	-5
CCCCn1c(-c2ccoc2C)n[nH]c1=S	-16	-2.1	?	12	-11%	13
CN1CCN(C(=O)COc2ccc(S(=O)(=O)Nc3ccc(F)cc3)cc2)CC1	3	0.1	-21%	0	7%	7
COc1cccc(CCNCc2cccc(C(F)(F)F)c2)c1	-8	1.4	12%[15.4 µM]	12	8%	8

Single records (already shown):
Listed for `CCN1CCN(c2nc3c(c(=O)[nH]2)CCC3)CC1` : D2 potentiator = -10; D2 agonist = -2.3; gsp agonist = -24%; Six1-Eya2 inh = -3; gsp antag = 11%; CtBP-E1A inh = nt
Listed for `O=C1NC(=O)C(=Cc2cccs2)C(=O)N1` : D2 potentiator = -10; D2 agonist = -6.8; gsp agonist = ?; Six1-Eya2 inh = 2; gsp antag = -9%; CtBP-E1A inh = 11

The list goes on:
SMILES	D2 potentiator	D2 agonist	gsp agonist	Six1-Eya2 inh	gsp antag	CtBP-E1A inh
COC(=O)C1=C(c2ccccc2)C[C@@H]2CC[C@H]1N2C(=O)NCc1ccco1	-10	-3.9	-3%	0	-5%	3
CN(C)[C@@H]1C(=O)C(C(N)=O)=C(O)[C@@]2(O)C(=O)C3=C(O)c4c(O)cccc4[C@@](C)(O)[C@H]3[C@H](O)[C@@H]12	14&0	-2.3&-1.9	nt	?	-4%&3%	-67*!
CC1(C)NC(=S)C(C)(C)N1N=O	-1	1.6	0%	8	16%	3
Cc1ccc(Cn2c(C)c3cnn(CC(=O)N4CCC5(CC4)OCCO5)c(=O)c3c2C)cc1	-6	-0.7	-1%	?	5%	-19
O=C(CCN1CCCCC1)Nc1ccc(Cl)cc1C(=O)c1ccccc1	-10	-0.5	5%	-2	16%	-7
O=c1c2ccccc2nc(/C=C/c2ccc(F)cc2)n1-c1ccccn1	-4	-4.3	-5%[15.4 µM]	0	9%	-13
Cc1cc(C(=O)Nc2ccccc2)nn1C(C)(C)C	-8	-3.5	-2%[15.4 µM]	7	6%	-1
Cc1ccc(N)c(N)c1	-10	1.6	nt	-5	-21%	-3
O=C1OCCC1C(=O)c1ccccc1 (centres undefined)	-7	-6.5	11%	-2	nt	-1
Cc1ccc2c(c1)N(C(=O)CCC(=O)N1CCC3(CC1)OCCO3)CCO2	-3	-3.3	-39%[inhibitor]	5	14%	nt
O=C(CNS(=O)(=O)c1ccc(Br)s1)N1CCC2(CC1)OCCO2	-12	-3.2	-4%	-5	-2%	-3
Oc1ccc(CCNCc2cc3c(cc2Br)OCO3)cc1	-19	-4.4	-4%	2	nt	-2
Cc1c(N=Cc2c(O)n(Cc3ccco3)c(=O)[nH]c2=O)c(=O)n(-c2ccccc2)n1C	3	-3.5	-11%	-11	3%	-7
C=CCN1CC[C@]23c4c5ccc(O)c4OC2C(O)C=CC3[C@H]1C5 (some centres undefined)	-25	2.5	nt	3	2%	4
C[C@H]1CC2C3CC=C4C[C@@H](O)CC[C@]4(C)C3CC[C@]2(C)[C@H]1O (some centres undefined)	-3	3.9	-40%[inhibitor]	1	-6%	0
CC1CC=CCC12C(=O)NC(=S)NC2=O (centres undefined)	-13	-1.3	0%	1	5%	8
O=C(CCc1ccc(O)cc1)N1C[C@H]2C[C@@H](C1)c1cccc(=O)n1C2	-25	-4.2	nt	10	8%	3
Cc1ccc(NP(=O)(Oc2ccccc2F)Oc2ccccc2F)cc1	-10	-1.7	?	-3	-14%	7
O=C1CC(=O)N(c2cccc(F)c2)C(=O)N1	-1	3.3	19%	-9	10%	nt
COC(=O)C1=C(c2ccc(OC(F)(F)F)cc2)C[C@@H]2CC[C@H]1N2C(=O)NC(C)C	-2	-2.0	-2%	0	13%	7
O=C1C(Br)C2CCC1C2C(=O)O (centres undefined)	-9	-4.9	8%	29	nt	-15
O=C(NC1CC2CCCC(C1)N2)c1ccccc1 (centres undefined)	-8	7.0	-24%	0	-1%	1
COc1ccc(CN2Cc3cnnn3-c3ccccc3C2C)cc1 (centres undefined)	-8	-1.0	nt	-1	-1%	3
CCCCOc1ccc(CC2C(=O)N(C)C(=O)N(C)C2=O)cc1	-1	0.7	11%	12	-2%	-1
CC(=O)O[C@@H]1[C@H]2CC[C@@H]3[C@]1(C[C@@H](OC(C)=O)[C@@]1(O)C([C@@H]4O[C@@H]4C1(C)C)[C@]3(C)O)C[C@@]2(C)O (some centres undefined)	-5	-4.5	?	-5	12%	5
COc1ccc(CCNCc2ccc(SC)cc2)cc1	-24	-1.9	19%	-17	4%	-13
Cc1cc(Cl)ccc1C(=O)C1CCCN(Cc2ccon2)C1 (centres undefined)	-9	-0.2	-9%	-2	-1%	6
Nc1nnc(CCN2CCCCC2)s1	-17	-0.5	-7%	2	9%	6
Cc1cccc(C#N)c1	-6	0.8	nt	2	3%	4
O=c1cc(CN2CC=C(c3ccccc3)CC2)c2c(ccc3ccccc32)o1	-13	0.7	16%	0	7%	-3
CCC(=NCc1ccco1)c1c(O)n(-c2ccccc2)c(=O)[nH]c1=O	-9	-0.6	-65%[inhibitor]	0	4%	0
O=C1NC(=O)N(c2ccc3c(c2)OCO3)C(=O)/C1=C\c1ccsc1	-7	-5.6	-39%	-3	-6%	9
Clc1cccc(N2CCNCC2)n1	-9	?	-12%[15.4 µM]	14	14%	nt
CC[N+](CC)(CC)CCCOC(=O)C(O)(c1ccccc1)C1CCCCC1 (centres undefined)	-11	-2.0	-42%[inhibitor]	7	8%	1
C(=NC1CCCCC1)c1c[nH]c2ccccc12	1	-0.6	10%[15.4 µM]	-1	4%	0
O=c1[nH]c(=O)n(-c2ccccc2)c(O)c1N=Nc1ccc(Br)cc1	-4	0.2	-37%[inhibitor]	0	-16%	-3
O=C(O)C1(Br)CC12c1ccccc1-c1ccccc12 (centres undefined)	-14	1.7	-18%	13	-8%	-1
COc1cccc(C(=O)C2CCCN(Cc3ccc4nsnc4c3)C2)c1 (centres undefined)	-15	1.8	77%	2	?	9
CCCCC1(CN2CCCC2=O)C(=O)NC(=O)NC1=O	-4	-0.7	-3%	6	9%	-3
O=C1NC(=O)C2(C(=O)N1)C(c1ccc(F)cc1)NC(=S)NC2c1ccc(F)cc1 (centres undefined)	4	-2.4	-4%	17	0%	0
CC(=O)N(C1=NCCCS1)c1ccc(Cl)cc1	-8	-1.1	-11%	-14	3%	-6
COc1cccc(CN2CCNCC2)c1OC	-16	-3.5	11%[15.4 µM]	4	12%	7
Cc1ccc(OCCOc2cccc(C=C3C(=O)NC(=O)NC3=O)c2)cc1	-12	0.7	-8%	15	-11%	nt
O=C(Cc1ccccc1)OCC(=O)c1ccccc1	-14	-8.6	40%	7	2%	6
CCC[N+]12CCC(CC1)C(=C(c1ccccc1)c1ccccc1)C2	-1	-2.2	-32%[inhibitor]	1	10%	-20
Cc1ccc2c(c1)C1CN(C)CCC1N2C(=O)Cn1cnc2c1c(=O)n(C)c(=O)n2C (centres undefined)	-5	-1.6	-1%	-3	8%	2
CCOCCN1CCC(OC(C)=O)C(C)C1 (centres undefined)	-7	0.5	-10%	2	12%	-4
CCOC(=O)c1c(/N=C/C2C(=O)NC(=S)NC2=O)sc2c1CCC2	-7	-9.2	?	-11	3%	0
Cc1ccc(/C=C2\C(=O)NC(=O)N(CCc3ccc(F)cc3)C2=O)o1	-9	-3.5	-11%	3	?	nt
